Compound activity from PubChem BioAssay.
MLL AF4-AF9 inh: inhibitors of AF4 peptide binding to AF9, primary screen, biochemical, AlphaScreen, biotin-AF4 peptide, FLAG-AF9, single point; Protein AF-9 (Homo sapiens), P42568; inhibition, % at 10 µM; actives 0.47% (n = 350,000); AID 651704, 2012;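 active = every replicate reaching a set inhibition limit, whatever the replicate mean, cut at about 25% in these data; inconclusive = mean inhibition reaches that limit but some replicates miss it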;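 note: 0% = plate neutral control median and 100% = total signal loss; the record names both 10 and 1 µM as test concentration; the first replicate is given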
Target sequence (P42568 whole entry, looked up): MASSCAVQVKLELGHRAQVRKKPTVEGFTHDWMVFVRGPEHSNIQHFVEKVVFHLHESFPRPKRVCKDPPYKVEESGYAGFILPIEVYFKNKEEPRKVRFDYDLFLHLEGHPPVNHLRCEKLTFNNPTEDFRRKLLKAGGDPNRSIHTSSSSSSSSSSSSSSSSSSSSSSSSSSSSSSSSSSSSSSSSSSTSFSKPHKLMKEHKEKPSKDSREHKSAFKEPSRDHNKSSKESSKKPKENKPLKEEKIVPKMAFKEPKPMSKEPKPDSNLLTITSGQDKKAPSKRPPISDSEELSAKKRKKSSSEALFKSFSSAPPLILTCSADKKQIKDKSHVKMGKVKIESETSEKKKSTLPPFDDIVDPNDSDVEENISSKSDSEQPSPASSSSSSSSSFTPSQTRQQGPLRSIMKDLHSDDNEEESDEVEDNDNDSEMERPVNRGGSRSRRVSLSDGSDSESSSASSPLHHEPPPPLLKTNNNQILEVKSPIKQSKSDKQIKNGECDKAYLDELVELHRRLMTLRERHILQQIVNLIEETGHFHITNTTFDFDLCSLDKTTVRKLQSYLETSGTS
Ecoli rRNA inh: reduced GFP signal of wild-type E. coli, primary screen, bacterial rRNA inhibitor project, GFP/RFP fluorescence, OD600, single point; GFP signal change (wild-type ribosome), % (concentration not given with the values); E. coli WT GFP vs humanized-ribosome RFP mutants, 24 h; active compounds read low; DMSO median 0, no signal -100; actives 1.6% (n = 350,000);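 active = significant combined selectivity score with lowered wild-type GFP, culture density cut under 30%, mutant RFP and density less affected; inactive = any of these conditions unmet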; note: one replicate is shown; some compounds called inactive have numbers as strong as hits
E coli growth: E. coli growth inhibition, primary screen, OD600 | Escherichia coli growth, 23 h; active compounds read low | OD600 absorbance (concentration not given with the values) | actives 0.21% (n = 330,000) | AID 1053175, 2014;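 active = OD600 absorbance below the run mean of sample wells minus 3.6 SD, in any replicate, cut at about 0.56 in these data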;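 note: stock transfer was 300 nL into about 60 µL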
FGF22 binding: binders of human FGF22 protein, primary screen, FGF22 synaptogenesis inhibitor project, biophysical, thermal shift, single point | Fibroblast growth factor 22 (Homo sapiens), Q9HCT0 | recombinant FGF22 thermal shift, SYPRO orange fluorescence; percent of sucrose octasulfate shift, DMSO zero | calls only at 9.99 µM | actives 1.5% (n = 340,000) | AID 651658, 2012;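 active = melting point raised past a set limit in the mean and every replicate; inconclusive = no clear call; three in four hits are not shown here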
Target sequence (Q9HCT0 whole entry, looked up): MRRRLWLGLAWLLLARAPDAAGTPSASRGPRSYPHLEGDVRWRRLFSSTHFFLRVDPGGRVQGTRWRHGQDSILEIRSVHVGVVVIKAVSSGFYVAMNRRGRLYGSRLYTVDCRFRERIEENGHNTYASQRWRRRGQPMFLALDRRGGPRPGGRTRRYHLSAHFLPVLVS
HNF4A DNA FP: change in binding of human HNF4A to DNA, primary screen, biochemical, fluorescence polarization, FITC-DNA. Hepatocyte nuclear factor 4-alpha (Homo sapiens), P41235. 1 h. activity change, % at 10 µM. actives 0.3% (n = 360,000). AID 1224865, 2016; in the data active = activity change above about 30%, passing the limit was not always enough;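 note: controls were the assay level and a saturating level of protein; the project sought stronger binding though the title names inhibitors; some compounds called inactive have numbers as strong as hits; positive values seem to mean higher polarization but the record does not say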
Vif A3G: inhibitors of Vif binding to APOBEC3G peptide, primary screen, biochemical, TR-FRET, GST-Vif 1-94, biotin-A3G peptide, dose response retest (AID 1117319); Virion infectivity factor (Human immunodeficiency virus type 1 group M subtype B (isolate …; TR-FRET GST-Vif / biotin-A3G peptide binding; higher % means a stronger effect; test concentration not given here; strong numbers were not always called active; inhibition, %; hits with a dose series show IC50 in µM; actives 0.57% (n = 260,000);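 active = above the screen mean plus three standard deviations and confirmed in dose response; inconclusive = results disagree or hit not tested in dose response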;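 note: Vif residues 1-94 fused to GST binding biotinylated APOBEC3G peptide 110-148; 0% = full assay without inhibitor and 100% = GST in place of GST-Vif; retest series ran down from 100 µM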
ALR inh: inhibitors of human ALR sulfhydryl oxidase, primary screen, biochemical, H2O2 detection, HRP-luminol luminescence, single point. FAD-linked sulfhydryl oxidase ALR (Homo sapiens), P55789. purified ALR, DTT oxidation. inhibition, % (concentration not given with the values). actives 3.8% (n = 290,000);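 active = mean and each replicate at 75% or more; inconclusive = only one of the two met; inactive = neither met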;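 note: stock transfer was 7.5 nL into about 7.5 µL; 0% = neutral wells and 100% = wells with inactivated enzyme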
Target sequence (P55789 whole entry, looked up): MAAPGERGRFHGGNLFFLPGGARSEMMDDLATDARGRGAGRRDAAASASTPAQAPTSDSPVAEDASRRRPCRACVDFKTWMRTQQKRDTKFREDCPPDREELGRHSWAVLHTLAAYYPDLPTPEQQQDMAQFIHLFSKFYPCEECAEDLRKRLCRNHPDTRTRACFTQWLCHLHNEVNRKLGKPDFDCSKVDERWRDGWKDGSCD
Ecoli rRNA inh OD600: also measured in Ecoli rRNA inh; calls as there; OD600 change, %; measured here: OD600 growth;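 optical density of the mix in the first replicate; 0 = DMSO median and -100 = no signal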
Ecoli rRNA inh RFP: second read-out of Ecoli rRNA inh, no call of its own (marks repeat the call); RFP signal change, %; measured here: RFP humanized mutant strains;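 first replicate; 0 = DMSO median and -100 = no signal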
* hit, by the source's call; i = inactive; u = inconclusive; x = no result given. Only part of the results is shown; the hit share may differ from the screen's.

SMILES | MLL AF4-AF9 inh | Ecoli rRNA inh | Ecoli rRNA inh OD600 | Ecoli rRNA inh RFP | E coli growth | FGF22 binding | HNF4A DNA FP | Vif A3G | ALR inh
O=C(O)c1ccc(S(=O)(=O)c2ccc3c(c2)C(=O)N(NC(=O)c2ccccc2)C3=O)cc1 | -4.2 | 16 | 9 | 2.1 | 0.73 | i | 0.1 | 14% | 5
c1ccc(CNC2=NCCCCC2)cc1 | x | x | x | x | 0.68 | x | -0.7 | u | -4
COc1ccc(CCN(Cc2ccccn2)C(=S)Nc2ccccc2F)cc1OC | -1.2 | 9 | 4 | 2.6 | 0.69 | i | -1.1 | 12% | x
COCCNC(=O)C[C@@H]1C[C@@H]2c3cc(NC(=O)C4CCC4)ccc3O[C@@H]2[C@@H](CO)O1 | -0.7 | 3 | 13 | -2.2 | x | i | x | x | x
CCCNC(C)(C)COC(=O)c1ccccc1 | -0.9 | x | x | x | 0.64 | i | -0.2 | x | -5
CCCCC(CC)C(=O)Nc1ccc(S(=O)(=O)N2CCCC2)cc1 (configuration not stated) | -13 | 0 | 3 | -2.1 | 0.66 | i | -0.1 | x | -4
Cc1ccc2nc(C3CCCCC3)[nH]c2c1 | -2.7 | 8 | 4 | 0.4 | 0.68 | i | 6.2 | x | x
CCC(=O)N[C@H]1CC[C@@H](CCn2cc(-c3cccc(OC)c3)nn2)O[C@@H]1CO | -0.3 | 4 | 6 | -1.7 | x | i | x | x | x
O=C1Cc2cc(S(=O)(=O)N3CCN(c4ccc(C(=O)O)cc4)CC3)ccc2N1 | -2.6 | -2 | 14 | -5.8 | x | i | 0.8 | x | x
Cc1ccc(NC(=O)c2cccc(N3C(=O)C4C5CCC(C5)C4C3=O)c2)c(C)c1 (configuration not stated) | x | x | x | x | 0.65 | x | -1.6 | 15% | -1
Cc1cccc(C)c1NC(=O)C(c1ccc([N+](=O)[O-])cc1)N(C)C(=O)c1ccccn1 (configuration not stated) | u | 7 | 8 | 3.5 | 0.65 | i | -2.6 | 19% | -1
CNS(=O)(=O)c1cc(Br)ccc1S(=O)c1ccccc1C(=O)O (configuration not stated) | 6.3 | 28 | 12 | 4.1 | 0.69 | i | 2.0 | -1% | 1
Cc1noc(C)c1NC(=O)Nc1ccc2c(c1)C(=O)N([C@H](C)CO)C[C@@H](C)[C@H](CN(C)Cc1ccc(-c3ccccc3)cc1)O2 | 11 | -3 | -29 | 12 | x | i | x | x | x
O=C(COc1ccccc1Cl)Nc1ccc2c(c1)C(=O)NC2=O | -1.7 | 2 | 12 | 2.8 | 0.69 | i | -2.1 | x | x
CCOC(=O)C1=C(CC)Nc2ccccc2N=C1N | -0.1 | -3 | -5 | -5.7 | 0.72 | i | -2.3 | x | 32
COc1ccccc1NC(=O)N1CCCCN2[C@H](CO)[C@H](c3ccc(-c4ccc(C)cc4)cc3)[C@H]2C1 | 5.3 | -56 | -80 | -12 | x | i | x | x | x
COc1ccc(-n2c(C)nnc2SCC(=O)NC2CC2)cc1 | -3.8 | 14 | 5 | 4.4 | x | i | -0.2 | x | 2
N/C(=N\c1nc2c(c(=O)[nH]1)CCCC2)Nc1ccccc1 | x | x | x | x | 0.7 | x | 1.9 | -10% | 14
Cc1ccc(NC(=O)COc2cccc(Oc3ccccc3)c2)cc1S(=O)(=O)N1CCOCC1 | -0.1 | -9 | -7 | 2.4 | 0.7 | i | 3.0 | -13% | -5
COC(=O)C[N+](C)(C)C/C=C\c1ccccc1 | -2.4 | x | x | x | 0.63 | x | 4.3 | -12% | -7
C[C@@H]1CCCCO[C@H](CN(C)C(=O)Nc2ccc(F)cc2)[C@@H](C)CN([C@@H](C)CO)C(=O)c2cc(NC(=O)NC3CCCCC3)ccc2O1 | -1.3 | -2 | 2 | 0.2 | x | i | x | x | x
CCN(CC(=O)Nc1c(F)cccc1F)C(=O)CCN1C(=O)C2CCCCC2C1=O (configuration not stated) | -1.2 | 6 | 7 | 2.6 | 0.65 | i | 3.3 | -6% | x
Cc1nn(C)c(C(=O)NNC(=S)NC2CCCCC2)c1Cl | x | x | x | x | 0.66 | x | -2.0 | -3% | x
COc1ccc(S(=O)(=O)N2CCCC2)c(Cl)c1Cl | -0.7 | 0 | 7 | 0.8 | 0.73 | i | -3.5 | 8% | 2
Cc1nc2ccccc2n1C1CC(=O)N(N(C)C)C1=O (configuration not stated) | -12 | 12 | 2 | 2.9 | 0.71 | i | -2.5 | 1% | 2

The final 2 compounds of the part above come first, to join the parts:
SMILES | MLL AF4-AF9 inh | Ecoli rRNA inh | Ecoli rRNA inh OD600 | Ecoli rRNA inh RFP | E coli growth | FGF22 binding | HNF4A DNA FP | Vif A3G | ALR inh
COc1ccc(S(=O)(=O)N2CCCC2)c(Cl)c1Cl | -0.7 | 0 | 7 | 0.8 | 0.73 | i | -3.5 | 8% | 2
Cc1nc2ccccc2n1C1CC(=O)N(N(C)C)C1=O (configuration not stated) | -12 | 12 | 2 | 2.9 | 0.71 | i | -2.5 | 1% | 2
CCOC(=O)c1cnc(SCC(=O)NCc2ccco2)nc1N | x | x | x | x | 0.7 | x | 1.2 | 2% | 4
Cc1ccc[n+](CC2OCc3ccccc3CO2)c1 | 1.2 | -1 | 1 | -2.1 | 0.67 | i | -1.3 | 2% | -1
CC(OC(=O)COc1ccc(C#N)cc1)C(=O)Nc1ccc(Cl)cn1 (configuration not stated) | -14 | 5 | 5 | -1.3 | 0.71 | i | 0.6 | 7% | 1
COc1ccc(NC(=O)CN2C(=O)C(C)Oc3ccc(C)cc32)cc1 (configuration not stated) | -1.5 | 6 | 4 | -1.8 | 0.66 | i | 0.3 | x | x
CC(C)(C)c1ccc(S(=O)(=O)Nc2ccc(C(=O)N3CCCC3)cc2)cc1 | -7.1 | -6 | -28 | 1.6 | 0.72 | i | -2.5 | x | -21
C=CCc1c(C)nc(SC)nc1Nc1ccc(C)cc1 | x | -52 | -80 | -18 | 0.67 | x | 1.5 | 4% | -17
CC1(C(=O)NS(=O)(=O)c2cccc(C#N)c2)CCN1C(=O)c1ccco1 (configuration not stated) | 0.5 | 5 | 16 | -8.8 | x | i | 1.6 | x | x
Cc1[nH]c2ccc(C(=O)NC3CCC(C)CC3)cc2c1C (configuration not stated) | -1.0 | 4 | 1 | -0.7 | 0.71 | i | -0.9 | x | -1
Cc1cc(-c2nnc(CCC(=O)NC(C)c3ccc(F)cc3)o2)no1 (configuration not stated) | -2.4 | 4 | 4 | -2.7 | 0.66 | i | 5.2 | x | 3
COc1ccc(S(=O)(=O)Nc2ccc3c(c2)C(=O)N([C@H](C)CO)C[C@@H](C)[C@@H](CN(C)Cc2ccc(Cl)c(Cl)c2)O3)cc1 | 1.2 | -7 | -10 | 1.7 | x | i | x | x | x
Nc1nc(SCc2c(Cl)cccc2Cl)n[nH]1 | x | x | x | x | 0.68 | x | 1.1 | 5% | 2
C[C@H](CO)N1C[C@H](C)[C@H](CN(C)C(=O)Nc2ccccc2)Oc2c(cccc2N(C)C)C1=O | -1.9 | -4 | -3 | -1.2 | x | i | x | x | x
CC(=O)NCC(=O)N1CCC(n2nccc2NC(=O)CCCc2ccccc2)CC1 | -1.6 | 13 | 13 | -0.8 | 0.7 | i | 0.6 | -12% | -19
CC(C)NC(=O)Nc1ccc2c(c1)C(=O)N([C@H](C)CO)C[C@H](C)[C@H](CN(C)C(=O)Nc1ccc(C(F)(F)F)cc1)OCCCC[C@H](C)O2 | -2.8 | -2 | -1 | -1.5 | x | i | x | x | x
Cc1ccc(NC(=O)CCCN2C(=O)/C(=C/C=C/c3ccccc3)SC2=S)cc1 | x | x | x | x | 0.75 | x | 7.9 | x | 7
CN(C(=O)c1ccc(NC(=O)Cc2cccc(NC(=O)C3CCCN(C(=O)C4CC4)C3)c2)cc1)C1CC1 (configuration not stated) | -3.8 | 11 | 10 | 1.0 | 0.69 | i | 1.0 | -4% | x
COC(=O)c1nnn(-c2nonc2N)c1CSc1ccccn1 | x | x | x | x | 0.78 | x | 0.7 | 7% | -5
O=C(O)c1ccc(COc2ccccc2/C=C2\NC(=O)N(Cc3ccccc3)C2=O)cc1 | -0.1 | 5 | 11 | 2.7 | 0.71 | i | -1.6 | x | 7
Cc1nnc(-c2cnn(-c3ccccc3)c2N)n1Cc1ccncc1 | x | x | x | x | 0.72 | x | 0.1 | -6% | -3
C=CCc1cccc(/C=C/c2cc(=O)c3ccccc3[nH]2)c1O | -1.1 | -48 | -80 | -14 | 0.69 | i | 0.5 | x | 43
O=C(NCc1ccccc1)c1ccc2c(c1)C(=O)N(Cc1ccncc1)C2=O | x | x | x | x | 0.72 | x | 0.8 | u | -1
COc1cccc(CC(=O)OCC(=O)c2cc(OC)ccc2OC)c1 | -2.7 | x | x | x | 0.69 | i | -4.4 | 19% | x
CC(=O)n1nc(-c2ccccc2)nc1NCc1cccs1 | -4.1 | 13 | 5 | 1.5 | 0.71 | i | -1.9 | -4% | -13
C[C@@H]1CCCCO[C@@H](CN(C)C(=O)c2ccccc2)[C@@H](C)CN([C@@H](C)CO)C(=O)c2cc(NC(=O)C3CCCCC3)ccc2O1 | -0.8 | 4 | -5 | -1.1 | x | i | x | x | x
C[C@@H]1CCCCO[C@H](CN(C)C(=O)Nc2cccc3ccccc23)[C@H](C)CN([C@@H](C)CO)C(=O)c2cc(NC(=O)CCCN(C)C)ccc2O1 | 6.8 | 4 | -2 | 14 | x | i | x | x | x
O=C(/C=C/c1ccccc1)OCCCCN=C1NS(=O)(=O)c2ccccc21 | 0.4 | 10 | 13 | 1.4 | 0.69 | i | 7.5 | 5% | -7
Cc1cccc(-c2ccc([C@@H]3[C@H]4CN(C(=O)c5cccnc5)CCCCN4[C@H]3CO)cc2)c1 | -1.9 | 5 | -27 | 0.9 | x | i | x | x | x
Cc1oc(-c2cccs2)cc1C(=O)N1CCCC(C)(C(=O)O)C1 (configuration not stated) | -4.8 | 1 | 7 | 1.2 | x | i | 0.7 | x | x

3 entries out of the list above, ordered by the number in Ecoli rRNA inh, highest first:
Compound | Ecoli rRNA inh
CC(=O)n1nc(-c2ccccc2)nc1NCc1cccs1 | 13
O=C(O)c1ccc(COc2ccccc2/C=C2\NC(=O)N(Cc3ccccc3)C2=O)cc1 | 5
C=CCc1c(C)nc(SC)nc1Nc1ccc(C)cc1 | -52

In another format: entries from further up.
Results follow in this order: MLL AF4-AF9 inh	Ecoli rRNA inh	Ecoli rRNA inh OD600	Ecoli rRNA inh RFP	E coli growth	FGF22 binding	HNF4A DNA FP	Vif A3G	ALR inh
- C[C@@H]1CCCCO[C@@H](CN(C)C(=O)c2ccccc2)[C@@H](C)CN([C@@H](C)CO)C(=O)c2cc(NC(=O)C3CCCCC3)ccc2O1
  -0.8	4	-5	-1.1	x	i	x	x	x
- CN(C(=O)c1ccc(NC(=O)Cc2cccc(NC(=O)C3CCCN(C(=O)C4CC4)C3)c2)cc1)C1CC1 (configuration not stated)
  -3.8	11	10	1.0	0.69	i	1.0	-4%	x
- Cc1oc(-c2cccs2)cc1C(=O)N1CCCC(C)(C(=O)O)C1 (configuration not stated)
  -4.8	1	7	1.2	x	i	0.7	x	x
